CtBP-E1A blk: qHTS Assay for Inhibitors of the CtBP/E1A Interaction; CtBP / adenovirus E1A interaction (AlphaScreen); AlphaScreen GST-E1A/His-CtBP binding, 1536-well; hits give low values; control for the full effect not named in the record; activity change, % (concentration not given with the values); 340,000 tested, 0.49% active; AID 651724, 2012; in the data active means activity change below about -65%; inconclusive means about -30% to -65%; inactive means above about -30%; note: % is set by controls: 0 for no effect and ±100 for the full control effect
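Protein mix (5X: 125 nM each GST-E1A, His-CtBP) was incubated with pinned compound 2 h at 37 deg C in dark, in 50 mM Tris pH 8.0 buffer with 300 mM NaCl. Glutathione donor and nickel acceptor beads followed; AlphaScreen signal read after 1 h.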
D2 PAM: Beta-Arrestin HTS for Positive Allosteric Modulators of the Human D2 Dopamine Receptor: Potentiators; DiscoveRx D2 beta-arrestin cells, luminescence, 90 min; 100% = 57 uM dopamine signal; potentiation, % (concentration not given with the values); 360,000 tested, 0.23% active; active = potentiation of 50% or more; inconclusive = 30% to 50%; inactive = 30% or less;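 note: compound concentration not given in the record; tested on top of an EC20 dose of dopamine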
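PathHunter beta-arrestin assay in DiscoveRx D2 cells. Compounds were added with an EC20 of dopamine (50 nM final) for 90 min at 37 deg C. Luminescence was read 1 h after detection reagent, with 57 uM dopamine as the EC100 control.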
TRPML1 blocker: qHTS for Inhibitors of the Human Mucolipin Transient Receptor Potential 1 (TRPML1). Mucolipin-1 (Homo sapiens), Q9GZU1. TRPML1-inducible cells, Ca2+ dye fluorescence, FDSS; hits give low values; inhibition of EC80 agonist-evoked calcium signal. activity change, negative = inhibition, % (no concentration beside the values). 390,000 tested, 0.02% active. AID 624415, 2012; in the data active means activity change below about -50%; inconclusive means about -30% to -50%; inactive means above about -30%;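 note: stimulus is agonist 54-4 at its EC80 concentration; % is set by controls: 0 for no effect and ±100 for the full control effect; compound concentration not given in the record; the text of the record puts the active cut at -80%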
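Calcium fluorescence in TRPML1-DL cells induced overnight with Tet: a 110 s read after compound pin addition, then a 110 s antagonist read after challenge with 54-4 at 4 uM final (EC80).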
TRPML1 agonist: qHTS for Agonists of the Human Mucolipin Transient Receptor Potential 1 (TRPML1). TRPML1-expressing cells, Ca2+ dye fluorescence, FDSS; host cell line not named in the record; reference of the full effect not given here. AID 624414, 2012. activation, % (no concentration beside the values). Mucolipin-1 (Homo sapiens), Q9GZU1. 410,000 tested, 0.12% active; in the data active = activation above about 50%; inconclusive = about 30% to 50%; inactive = below about 30%; note: 0% is about no effect; the text of the record puts the active cut at 80%
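TRPML1-DL cells, Tet-induced overnight (~16 h, 37 degrees C), loaded 45-90 min at room temperature with Ca8 no-wash calcium dye plus quencher. FDSS fluorescence: 10 s baseline, compound pin-transfer, 110 s agonist read, then EC80 54-4 (4uM final) and 110 s antagonist read.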
TRPV1 PAM: HTS Assay for Compounds that Act as Potentiators of the Vanilloid Receptor 1; TRPV1-expressing cells, Fluo-8 calcium influx, capsaicin EC20 potentiation; host cell line not named in the record; control for the full effect not named in the record; Transient receptor potential cation channel subfamily V member 1 (Homo sapiens), Q8NER1; potentiation, % at 8.33 µM; 320,000 tested, 0.02% active; active means potentiation above 80%; inconclusive means 30% to 80%; inactive means below 30%; note: 0% is about no effect
Target sequence (Q8NER1 whole entry, looked up): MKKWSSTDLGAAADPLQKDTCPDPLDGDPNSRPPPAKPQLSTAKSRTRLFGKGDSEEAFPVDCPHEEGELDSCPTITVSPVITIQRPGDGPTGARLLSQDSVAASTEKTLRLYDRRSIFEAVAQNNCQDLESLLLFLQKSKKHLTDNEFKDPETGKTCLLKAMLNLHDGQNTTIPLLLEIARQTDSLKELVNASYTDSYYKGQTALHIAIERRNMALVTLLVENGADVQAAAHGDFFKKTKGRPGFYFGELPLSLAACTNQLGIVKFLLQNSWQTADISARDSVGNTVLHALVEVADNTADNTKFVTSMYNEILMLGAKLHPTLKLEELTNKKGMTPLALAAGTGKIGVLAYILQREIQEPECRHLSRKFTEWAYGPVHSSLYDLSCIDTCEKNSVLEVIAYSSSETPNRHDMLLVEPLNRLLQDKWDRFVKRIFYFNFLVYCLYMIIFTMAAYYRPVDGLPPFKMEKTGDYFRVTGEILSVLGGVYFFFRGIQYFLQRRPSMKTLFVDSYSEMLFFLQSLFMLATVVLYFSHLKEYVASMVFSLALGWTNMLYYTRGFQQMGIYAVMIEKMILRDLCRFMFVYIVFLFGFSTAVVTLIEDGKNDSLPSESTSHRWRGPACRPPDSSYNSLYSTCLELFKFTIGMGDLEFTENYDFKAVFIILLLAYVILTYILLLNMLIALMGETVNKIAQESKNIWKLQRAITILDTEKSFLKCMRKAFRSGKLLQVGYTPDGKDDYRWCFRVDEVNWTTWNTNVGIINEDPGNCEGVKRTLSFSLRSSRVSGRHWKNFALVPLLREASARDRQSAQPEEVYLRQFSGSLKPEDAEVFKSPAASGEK
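TRPV1-expressing cells were cultured overnight at 35.5C and loaded with Fluo-8 calcium dye for 40 to 90 min at room temperature. After a 10 s baseline, compound was added and calcium influx was read kinetically for 3 min (ex 480/em 520 nm).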
Six1-Eya2 inh: qHTS Assay for Inhibitors of the Six1/Eya2 Interaction; Homeobox protein SIX1 (Homo sapiens) + Protein phosphatase EYA2 (Homo sapiens), …; AlphaScreen GST-Six1/His-Eya2 binding, biochemical; hits give low values; control for the full effect not named in the record; activity change, % (concentration not given with the values); 360,000 tested, 0.56% active; in the data active = activity change below about -65%; inconclusive = about -30% to -65%; inactive = above about -30%; note: % is set by controls: 0 for no effect and ±100 for the full control effect
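AlphaScreen with GST-Six1 and His-Eya2 (5X mix: 250 nM and 500 nM), glutathione donor and nickel acceptor beads; buffer 50 mM Tris pH 8.0, 300 mM NaCl, 1 mM TCEP; 1 h at 37 C in the dark.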
* = called active by the depositor; ? = inconclusive; . = not tested or not shown; & = joins results of further samples.

SMILES | CtBP-E1A blk | D2 PAM | TRPML1 blocker | TRPML1 agonist | TRPV1 PAM | Six1-Eya2 inh
Cn1c(N2CCN(C(=O)Nc3ccc(F)cc3)CC2)nc2ccccc21 | -11.3 | -2.9 | -3.2 | -0.4 | 26.8 | -1.6
O=C(Cc1ccc(Cl)cc1)NCCc1c[nH]c2ccccc12 | -5.4 | -2.1 | -6.6 | 1.6 | . | -8.3
N#C/C(=C/N1CCOCC1)c1ccccc1 | -6.6 | 3.4 | 1.6 | -0.9 | . | -3.2
COc1ccc(C(CC(=O)N2CCCC2)c2c(O)cc(OC)cc2OC)cc1 (stereo unspecified) | 0.8 | -6.6 | -6.0&-1.1 | 0.7&0.1 | 2.1 | 0.2
CN(C)c1ccc(C=c2c3cc(O)ccc3n3c2cc(-c2ccccc2)[n+]3C)cc1 | 11.7 | -33.0 | -1.7 | -0.1 | . | -73.8*
Cc1ccc(S(=O)(=O)N2CC[C@@H]2C(=O)O)cc1 | 6.1 | -1.0 | -8.2 | -0.1 | . | 4.8
O=C(NCCc1ccncc1)c1ccc2nc(Cc3cccc(Cl)c3)oc2c1 | -1.3 | ? | 6.7 | 0.3 | -14.8 | -3.7
CC(OC(=O)c1ccc(F)c(S(=O)(=O)N2CCOCC2)c1)C(=O)NC1CCCC1 (stereo unspecified) | -1.6 | -8.1 | 2.0 | -0.7 | -5.2 | 0.8
COc1ccccc1N1CCN(C(=O)Cn2c(=O)oc3cc(S(=O)(=O)N4CCCC4)ccc32)CC1 | 22.8 | -10.9 | 7.1 | -0.6 | -4.7 | 10.5
Cc1ccc(C(C(=O)NC2CCCCC2)N(Cc2ccco2)C(=O)Cn2cnc3ccccc32)cc1 (stereo unspecified) | -10.8 | -2.5 | 6.6 | 0.6 | 28.1 | -2.5
O=C(O)CCN=CC1=C(O)CC(c2ccccc2)CC1=O (stereo unspecified) | 0.9 | -0.8 | 0.9 | 0.3 | 1.2 | 1.8
O=C(CN1c2cccc3cccc(c23)S1(=O)=O)N1CCN(c2ccc(F)cc2)CC1 | -3.9 | -0.1 | 5.9 | -0.9 | 8.1 | -2.2
Cc1cc(N2C(=O)C=CC2=O)c([N+](=O)[O-])cc1C | ? | -18.2 | 11.8 | -0.1 | 0.4 | -16.7
COC(=O)c1ccc(NC(=O)C(=O)N2CCN(C(=S)Nc3cccc(OC)c3)CC2)cc1 | -7.0 | 0.0 | -0.4 | 0.8 | -4.5 | -13.9
N#Cc1nc(-c2ccc(OCc3ccccc3)cc2)oc1NCCCN1CCOCC1 | -19.7 | 2.6 | 44.4 | -0.1 | -2.7 | ?
O=C(c1cccc(Br)c1)N1CCCC1 | 2.7 | -13.1 | -10.0 | 2.0 | -1.3 | 5.8
Cc1c(Cl)cccc1NC(=O)CN1CCN(CCN=CC2=C(O)CC(c3ccccc3)CC2=O)CC1 (stereo unspecified) | -2.1 | -1.0 | 7.4 | 0.2 | 20.8 | -2.5
CC(C)CCn1cnc2c1c(=O)[nH]c(=O)n2Cc1ccccc1 | . | -4.8 | -6.6 | -0.5 | 1.1 | 9.2
O=C(COC(=O)c1ccccc1-n1cnnn1)c1ccccc1 | 3.7 | 12.0 | -7.2 | 0.1 | -2.0 | -0.6
CC(=O)N1c2ccc(S(=O)(=O)NCCC(=O)NCc3ccc(Cl)cc3)cc2CC1C (stereo unspecified) | 6.6 | -3.2 | 10.0 | -0.4 | 4.5 | 1.9
CCCN1CCC(=NNc2ccc(S(N)(=O)=O)cc2[N+](=O)[O-])CC1 | 13.9 | -0.8 | 26.4 | -0.5 | 9.9 | -21.0
O=C(CN1CCCCCC1)NC(c1ccccc1)c1ccccc1 | -7.1 | -25.7 | 4.6 | 1.0 | 11.1 | -4.9
CCn1nc(C)c(CN2CCc3c([nH]c4ccccc34)C2C(C)(C)C)c1C (stereo unspecified) | -11.9 | -3.7 | 30.9 | 0.2 | -10.4 | -9.8
CC(=O)c1ccc(S(=O)(=O)NC2CCSc3ccccc32)cc1 (stereo unspecified) | 11.9 | -9.1 | -8.4 | -1.7 | -5.9 | -7.7
CCN1CCN(S(=O)(=O)c2ccc(Cl)c(C(=O)N(C)Cc3ccccc3)c2)CC1 | -2.4 | -3.7 | 9.7 | 0.3 | -4.5 | 0.0
COCCC(=O)N1CCCC(C(=O)c2ccc(C(F)(F)F)cc2)C1 (stereo unspecified) | 1.1 | -0.2 | 9.4 | 0.5 | -20.2 | 5.4
Cc1ccc(NC(=O)Nc2ccc(Cl)c(Cl)c2)nc1 | 1.9 | -6.9 | -6.9 | -0.4 | 2.5 | -2.6
Cc1nc(SCC(=O)NC2CCS(=O)(=O)C2)c2c3c(sc2n1)CCCC3 (stereo unspecified) | 5.5 | -11.8 | 6.9 | -0.7 | 16.0 | 1.6
Cc1ccccc1NC(=O)CSc1nc(-c2ccccc2)cc(=O)[nH]1 | 14.4 | 4.3 | 4.8 | -0.2 | ? | -2.1
O=C(CSc1ncn[nH]1)N(C1CCCCC1)C1CCCCC1 | 2.7 | 0.7 | -5.2 | -0.5 | -4.1 | -0.1
CC(C)CC(NC(=O)CNC(=O)C1O[C@@H]2OC(C)(C)O[C@@H]2[C@H]2OC(C)(C)O[C@@H]12)C(=O)O (stereo partly specified) | . | -6.5 | -10.2 | 0.1 | 5.7 | 0.1
O=C1NC(c2cccc(Br)c2)=N/C1=C\c1ccco1 | -8.4 | -3.2 | -8.0 | 5.9 | -10.9 | -18.9
CCOc1ccccc1NC(=O)NC1CCCc2ccccc21 (stereo unspecified) | -3.1 | -21.4 | -8.8 | 1.2 | ? | -0.5
Brc1ccc(CNc2ccc3ncccc3c2)cc1 | . | -4.4 | -5.2 | -1.0 | 19.3 | 12.3
COc1ccccc1/C=N/NC(=O)CNC(=O)c1ccccc1 | -7.5 | -20.7 | . | . | -2.6 | 0.8
CCN1CCN(CCNC(=O)c2ccc(/C=C3/Sc4ccccc4N(Cc4cccc(Cl)c4)C3=O)cc2)CC1 | -23.3 | -1.4 | -3.5 | 1.6 | -0.9 | -11.0

In the list so far, two contain a furan ring, fused or not:
SMILES | CtBP-E1A blk | D2 PAM | TRPML1 blocker | TRPML1 agonist | TRPV1 PAM | Six1-Eya2 inh
Cc1ccc(C(C(=O)NC2CCCCC2)N(Cc2ccco2)C(=O)Cn2cnc3ccccc32)cc1 (stereo unspecified) | -10.8 | -2.5 | 6.6 | 0.6 | 28.1 | -2.5
O=C1NC(c2cccc(Br)c2)=N/C1=C\c1ccco1 | -8.4 | -3.2 | -8.0 | 5.9 | -10.9 | -18.9

Complete entries as entered above:
Results for `CC(C)CC(NC(=O)CNC(=O)C1O[C@@H]2OC(C)(C)O[C@@H]2[C@H]2OC(C)(C)O[C@@H]12)C(=O)O` (stereo partly specified) = CtBP-E1A blk: .; D2 PAM: -6.5; TRPML1 blocker: -10.2; TRPML1 agonist: 0.1; TRPV1 PAM: 5.7; Six1-Eya2 inh: 0.1
Results for `CCN1CCN(CCNC(=O)c2ccc(/C=C3/Sc4ccccc4N(Cc4cccc(Cl)c4)C3=O)cc2)CC1` = CtBP-E1A blk: -23.3; D2 PAM: -1.4; TRPML1 blocker: -3.5; TRPML1 agonist: 1.6; TRPV1 PAM: -0.9; Six1-Eya2 inh: -11.0

Next part:
SMILES | CtBP-E1A blk | D2 PAM | TRPML1 blocker | TRPML1 agonist | TRPV1 PAM | Six1-Eya2 inh
CCCCOC(=O)c1ccc(NC(=O)C(=O)NCc2ccco2)cc1 | 0.3 | -0.8 | 10.5 | 1.6 | -4.0 | 2.4
C=CC[C@H](CC(=O)OC(C)(C)C)C(=O)OC[C@H]1CCCN1C(=O)[C@H](CC=C)CC(=O)NCCO | 8.1 | -13.4 | 28.9 | -0.8 | . | 0.8
CCN1CCN(CC(=O)N2N=CCC2c2ccccc2)CC1 (stereo unspecified) | -12.1 | -9.3 | 1.2 | 0.1 | -7.0 | 6.9
COc1ccc(-c2ccc(SCC(=O)Nc3cc(C)on3)nn2)cc1OC | -16.1 | 14.8 | 12.1 | 2.4 | 1.9 | -15.6
CCOc1ccc(N2C(=O)CC(N3CC(C)OC(C)C3)C2=O)cc1 (stereo unspecified) | 0.2 | -10.2 | 3.2 | -0.5 | -3.2 | 2.6
COc1ccc(/C=C2/CC/C(=C\c3ccc(OC)c(OC)c3OC)C2=O)c(OC)c1OC | -15.1 | 2.0 | 10.8 | 3.1 | 16.6 | 0.0
CCC(CC)c1nc(NCCC(=O)O)c2ccccc2n1 | 4.8 | -3.8 | -5.8 | 0.4 | 9.7 | 6.1
CC(=O)Nc1sc(N)nc1-c1ccccc1 | 4.3 | -11.6 | -9.3 | -0.4 | 0.3 | 6.4
Cc1ccc(NC(=O)c2cc(N3C(=O)C4CC=CCC4C3=O)ccc2N2CCOCC2)cc1Cl (stereo unspecified) | -15.1 | -0.2 | 31.2 | 0.2 | 0.5 | 9.4
CC(CNS(=O)(=O)c1cc(Cl)ccc1Cl)CN(C)C (stereo unspecified) | -0.1 | -4.8 | -6.3 | 0.4 | -3.9 | -0.8
CCCc1nnc(NC(=O)c2cc3ccccc3oc2=O)s1 | 5.8 | -17.7 | -6.5 | -0.2 | -3.0 | 4.6
COc1ccc(-c2csc(NC(=O)CN3C(=O)C4CC=CCC4C3=O)n2)cc1OC (stereo unspecified) | -21.2 | -12.4 | -9.2 | 0.2 | . | -12.7
O=C(Nc1cccc(F)c1)C1CCN(C(=O)c2ccc(Br)cc2)CC1 | 1.9 | -6.2 | -8.0 | ? | -19.3 | 3.3
COc1cc(Cc2cc(OC)c(O)c(OC)c2)cc(OC)c1O | 0.0 | -0.2 | 0.9 | 0.2 | . | -5.1
O=C(NCc1ccc2c(c1)OCO2)C1CCC(CNS(=O)(=O)c2ccc(Cl)cc2)CC1 (stereo unspecified) | 0.5 | -8.5 | -7.2 | 1.7 | 16.9 | 6.7
CC(C)N(c1ccccc1)c1ccc(NC(=O)CCl)cc1 | 5.1 | 0.5 | 0.6 | 0.8 | ? | 8.2
CCOC(=O)C1CCN(C(=O)c2ccc(OC3CCN(C(=O)CCOC)CC3)cc2)CC1 | 1.3 | 6.2 | -6.0 | 0.8 | 7.4 | 4.5
CCOc1ccc(NC(=O)CN(C)C(=O)c2c(-c3ccccc3)noc2C)cc1OCC | . | -5.5 | 6.6 | -1.3 | 2.5 | -3.1
Cc1oncc1C(=O)NC(C)C | 1.0 | -9.1 | -3.1 | -0.1 | 5.3 | 4.3
O=C(CCn1cccn1)Nc1ccc(-c2ccno2)cc1 | . | -8.5 | 11.1 | 0.3 | -2.1 | 1.1
O=C(CN1CCN(C(=O)CNC(=O)c2ccc(N3CCCC3=O)cc2)CC1)Nc1ccccc1Cl | -13.1 | -2.0 | 15.8 | -0.3 | -9.2 | -3.1
CCO[C@H]1OC(C(=O)NC2CC2)=C[C@@H](C2CCCCC2)[C@@H]1CCCO | 2.5 | -11.9 | -4.2 | -0.3 | -36.6 | 1.8
